Bfl-1 A1 inh – inhibitors of the anti-apoptotic protein A1, read as caspase activation; MEF A1-2A-BIM cells, Caspase-Glo 3/7 luminescence, 3 h; percent of clofoctol response, vehicle zero; AID 2462; caspase activation, % (test concentration not listed); hit rate 0.066% among 330,000;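 active means over half of replicate activation scores above 10%, or exactly half above 10 with the replicate mean above 10; inconclusive means replicate mean below 10 yet half the replicates above 10; inactive means over half of replicates below 10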;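 further: wells of about 30 µL received 50 nL stock; many hits fall short of the cut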
Ecoli rRNA inh – inhibitors of bacterial rRNA selective over humanized ribosomes. hit rate 1.6% among 350,000. E. coli WT GFP vs humanized-ribosome RFP mutants, fluorescence, 24 h; active compounds read low; DMSO median 0, no signal -100. GFP signal change (wild-type ribosome), % (concentration not given with the values);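 active means significant combined selectivity score with lowered wild-type GFP, culture density cut under 30%, mutant RFP and density less affected; inactive means any of these conditions unmet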; further: one replicate is shown; some compounds called inactive have numbers as strong as hits
UCH37 DUB inh – blocks the human deubiquitinase UCH37 | Q9Y5K5 | purified proteasome/UCH37, Ub-AMC cleavage fluorescence | inhibition, % (no concentration beside the values) | hit rate 0.33% among 330,000 | AID 588478;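 active means mean of two replicates above 20%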;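 further: 0% = compound-free wells with enzyme and 100% = wells lacking proteasome; stock transfer was 100 nL into about 20 µL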
Target sequence (Q9Y5K5 whole entry, looked up): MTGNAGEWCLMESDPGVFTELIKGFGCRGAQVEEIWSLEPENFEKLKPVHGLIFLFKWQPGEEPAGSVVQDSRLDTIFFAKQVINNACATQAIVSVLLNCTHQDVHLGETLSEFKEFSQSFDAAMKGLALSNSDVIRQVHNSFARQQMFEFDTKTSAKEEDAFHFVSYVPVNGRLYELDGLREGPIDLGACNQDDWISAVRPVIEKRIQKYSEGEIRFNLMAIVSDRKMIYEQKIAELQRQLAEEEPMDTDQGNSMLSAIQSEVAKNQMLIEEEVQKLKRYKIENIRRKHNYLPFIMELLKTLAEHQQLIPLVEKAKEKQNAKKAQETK
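Material: Human UCH37 enzyme supplied as purified proteasome complex | Schedule: 30 min compound-proteasome preincubation then 25 min substrate reaction, room temperature | Detection: AMC fluorescence from Ub-AMC cleavage, excitation 355 nm, emission 460 nm | Benchmarks: Wells without proteasome as full block, compound-free enzyme plus substrate as uninhibited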
Beta apoptosis – blocks beta cell apoptosis; INS-1E cytokine-induced death, ATP luminescence, 48 h; percent of positive-control rescue, neutral wells zero; protection from apoptosis, % (test concentration not listed); hit rate 0.8% among 300,000; AID 435005;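 active means all replicates at 75% or more, or half of them and the mean; inconclusive means half reach 75% but not the mean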;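 further: 0% = cytokine-treated negative control wells and 100% = positive control rescue; higher means more ATP so stronger rescue from cytokine killing; wells of about 40 µL received 100 nL stock; the first replicate is given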
MLL AF4-AF9 inh – inhibitors of human MLL-AF4/AF9 interaction | inhibition, % at 10 µM | AlphaScreen, biotin-AF4 peptide binding to FLAG-AF9 | P42568 | hit rate 0.47% among 350,000 | AID 651704;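 active means every replicate reaching a set inhibition limit, whatever the replicate mean, cut at about 25% in these data; inconclusive means mean inhibition reaches that limit but some replicates miss it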;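 further: 0% = plate neutral control median and 100% = total signal loss; the record names both 10 and 1 µM as test concentration; the first replicate is given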
Target sequence (P42568 whole entry, looked up): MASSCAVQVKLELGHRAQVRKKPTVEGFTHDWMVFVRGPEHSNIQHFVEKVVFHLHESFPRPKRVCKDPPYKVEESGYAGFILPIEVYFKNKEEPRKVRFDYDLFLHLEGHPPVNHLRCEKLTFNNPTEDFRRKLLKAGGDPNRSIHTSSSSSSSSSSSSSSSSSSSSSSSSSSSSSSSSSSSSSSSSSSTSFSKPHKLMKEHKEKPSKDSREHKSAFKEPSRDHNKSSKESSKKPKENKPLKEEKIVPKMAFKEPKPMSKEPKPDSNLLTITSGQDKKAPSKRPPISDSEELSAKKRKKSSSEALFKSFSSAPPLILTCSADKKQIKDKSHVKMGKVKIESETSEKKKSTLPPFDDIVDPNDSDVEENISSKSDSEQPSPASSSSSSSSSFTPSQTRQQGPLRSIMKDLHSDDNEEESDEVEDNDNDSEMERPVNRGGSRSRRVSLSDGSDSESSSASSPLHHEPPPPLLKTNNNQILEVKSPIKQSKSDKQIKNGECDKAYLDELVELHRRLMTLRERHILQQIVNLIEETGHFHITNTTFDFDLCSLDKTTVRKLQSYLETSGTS
Ecoli growth – inhibitors of Escherichia coli growth; OD600 absorbance (no concentration beside the values); AID 1053175; hit rate 0.21% among 330,000; OD600, 23 h; active compounds read low;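 active means OD600 absorbance below the run mean of sample wells minus 3.6 SD, in any replicate, cut at about 0.56 in these data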;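 further: stock transfer was 300 nL into about 60 µL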
FGF22 binding – shifts melting point of recombinant human FGF22. Q9HCT0. recombinant FGF22 thermal shift, SYPRO orange fluorescence; percent of sucrose octasulfate shift, DMSO zero. calls only at 9.99 µM. hit rate 1.5% among 340,000. AID 651658;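 active means melting point raised past a set limit in the mean and every replicate; inconclusive means no clear call; three in four hits are not shown here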
Target sequence (Q9HCT0 whole entry, looked up): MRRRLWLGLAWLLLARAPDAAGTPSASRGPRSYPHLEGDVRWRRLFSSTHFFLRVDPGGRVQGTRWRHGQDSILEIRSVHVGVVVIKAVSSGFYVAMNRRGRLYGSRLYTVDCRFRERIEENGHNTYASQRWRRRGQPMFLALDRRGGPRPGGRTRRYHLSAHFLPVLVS
T cruzi repl – blocks replication of Trypanosoma cruzi; hit rate 1.4% among 300,000; inhibition, % (concentration not given with the values); T. cruzi beta-gal in NIH3T3, luminescence, 90 h;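 active means mean inhibition across valid replicates above about 55%, limit read from the data; inconclusive means mean below that limit but half or more replicates reach it; inactive means mean below it, under half of replicates reach it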;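 further: signal also drops with host cell toxicity which is not excluded here; 0% = plate median of DMSO wells and 100% = zero luminescence signal; higher percent means less beta-gal luminescence so fewer parasites; stock transfer was 50 nL into about 50 µL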
Ecoli rRNA inh OD600 – recorded beside Ecoli rRNA inh, whose call it bears; OD600 change, %; measured here: OD600 growth;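 optical density of the mix in the first replicate; 0 = DMSO median and -100 = no signal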
Ecoli rRNA inh RFP – further read-out of Ecoli rRNA inh, marked with its call; RFP signal change, %; measured here: RFP humanized mutant strains;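 first replicate; 0 = DMSO median and -100 = no signal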
* hit, by the source's call; i = inactive; ? = inconclusive; / = no result given. A portion of the library; the hit share may differ from the screen's.

SMILES	Bfl-1 A1 inh	Ecoli rRNA inh	Ecoli rRNA inh OD600	Ecoli rRNA inh RFP	UCH37 DUB inh	Beta apoptosis	MLL AF4-AF9 inh	Ecoli growth	FGF22 binding	T cruzi repl
CCOC(=O)c1c(S(=O)(=O)NCC(=O)Nc2cc(C)ccc2C)c(C)n(C)c1C	-0.6	12	2	5.8	-0.4	-1	-2.2	0.59	i	4
COc1cccc(C(C(=O)NC(C)(C)C)N(Cc2ccco2)C(=O)CCC(=O)Nc2cc(C)on2)c1OC (centres undefined)	0.4	-4	-8	-1.7	3.5	2	-11	0.63	i	12
CS(=O)(=O)N(CC(=O)Nc1ccccc1-c1ccccc1)c1ccc(F)cc1	1.2	-31	-31	-0.2	-0.9	-5	2.1	0.66	i	4
O=C1c2ccccc2CN1CCSC(=S)N1CCSCC1	1.2	/	/	/	3.3	-4	/	0.66	/	-8
CCCN(CCC)CCCNC(=O)c1cn(CC)c2ccc(S(=O)(=O)N3CCOCC3)cc2c1=O	0.5	0	7	-4.2	2.2	-12	1.4	0.68	i	5
N#Cc1c(N)n(CCOC(=O)c2cccc(Br)c2)c2nc3ccccc3nc12	-0.8	/	/	/	-33	-17	/	0.77	/	-7
COc1ccc(C(=O)Nc2cc(=O)n(C)c(=O)n2C)cc1OC	0.1	3	5	-0.7	11	/	-2.6	0.72	i	-16
Cc1cccc(OCC(=O)NCC(=O)N/N=C/c2ccc(O)cc2O)c1	0.1	-30*	-2.8*	-2.2*	/	19	-2.2	/	i	2
CC1CC1c1ccc(/C=C(\C#N)C(=O)Nc2cc(Cl)ccc2Cl)o1 (centres undefined)	0.5	/	/	/	-66	5	/	0.72	/	19
Cc1cccc(-n2cc(CN3CCN(c4ccccn4)CC3)c(-c3cccc(F)c3)n2)c1	-0.2	3	0	-2.7	1.9	-2	3.8	0.7	i	36
CN1C(=O)/C(=C\c2cc(Br)cs2)c2ccccc21	-2.2	5	22	-3.1	2.0	-3	-1.0	0.7	i	0
O=C1N/C(=C/c2cccn2-c2ccccc2)C(=O)N1Cc1ccc(F)cc1	1.5	/	/	/	-24	-7	/	0.71	/	23
O=C(O)C1C2CCC(O2)C1C(=O)Nc1cnn(Cc2ccccc2)c1 (centres undefined)	-0.5	/	/	/	3.2	8	/	0.74	/	-15
O=C(Nc1cc(S(=O)(=O)N2CCOCC2)ccc1N1CCOCC1)c1cnccn1	0.6	/	/	/	1.7	/	/	0.63	/	11
COc1ccc(NC(=O)COC(=O)c2c3c(nc4ccccc24)CCCC3)cc1	0.3	/	/	/	0.9	7	/	0.7	/	9
O=S(=O)(c1ccc2nc(Cc3cccc(C(F)(F)F)c3)[nH]c2c1)N1CCOCC1	-0.2	/	/	/	1.4	6	/	0.66	/	0
Cc1sc(-n2c(C)cc(C=O)c2C)c(C(=O)O)c1C	-0.5	/	/	/	4.3	-3	/	0.7	/	-7
O=C(NCc1ccncc1)c1ccc(Br)cc1	1.3	/	/	/	4.3	-2	/	0.65	/	-10
O=c1n(Cc2ccc(Cl)cc2)c2sc3c(c2c2ncnn12)CCCC3	-0.6	/	/	/	5.1	18	/	0.77	/	19
CCC(C)(C)NC(=O)C1c2ccccc2Oc2ccccc21	-0.9	12	6	-1.6	1.5	/	-0.7	0.68	/	1
CN1CCN(c2ccc(NC(=O)N3CCc4ccccc43)cc2)CC1	-2.0	8	14	2.1	5.0	-1	1.4	0.68	i	-5
O=C(NC(=S)Nc1cccc(C(F)(F)F)c1)c1ccc2nonc2c1	0.1	-46	-54	-11	2.3	4	0.8	0.66	i	-1
O=C(Nc1cccc(C(F)(F)F)c1)c1ccco1	0.5	-10	-12	-2.9	1.3	-4	/	0.67	/	1
Cc1ccc([C@@H]2[C@@H]3C(=O)N(C)C(=O)[C@@H]3[C@]3(C)C(=O)N(Cc4ccccn4)CC(=O)N23)o1	?	/	/	/	2.6	/	-5.2	/	i	18
NC(Cc1cccc2nsnc12)C(=O)O (centres undefined)	-0.6	/	/	/	5.2	-3	/	0.71	/	-17
Cc1cc(C)n(-c2ncnc3sc4c(c23)CC(C)CC4)n1 (centres undefined)	-0.3	/	/	/	-15	-3	/	0.68	/	-8
CN(C)c1ccc(CN(C(=O)c2cccs2)C2CCS(=O)(=O)C2)cc1 (centres undefined)	1.8	3	8	1.5	2.2	-4	0.5	0.62	i	-13
CC1(C)COC(c2ccc(F)c([N+](=O)[O-])c2)=N1	-0.3	5	5	12	1.9	-12	-2.4	0.63	i	-20
CCOc1cc(/C=C2/C(=O)ON=C2C)ccc1O	0.2	5	9	-0.8	2.7	3	0.6	0.67	i	-10
COCCCNC(=O)CCc1c(C)nc2c(c(C)nn2-c2ccccc2)c1C	-0.3	4	1	-0.7	-42	-10	-2.4	0.66	i	-15
C/C(=C\C(=O)O)C(=O)Nc1nccs1	-0.3	/	/	/	8.2	-6	/	0.79	/	-11
O=C(O)c1ccc(N/N=C/c2cn(Cc3ccc(F)cc3)c3ccccc23)cc1	-1.2	-34*	-9.5*	-13*	/	-7	2.2	/	i	-3
O=C(COC(=O)/C=C/c1ccco1)NCCc1ccccc1	0.4	3	-5	3.7	4.6	-3	-2.0	0.67	/	-3
O=C(NC1CCN(C(=S)Nc2ccc(Cl)cc2)CC1)c1ccco1	-0.8	-1	-21	-0.8	0.5	7	-2.5	0.62	i	-16
O=C(CSc1ccc2ccccc2c1)N1CCN(c2ccc(O)cc2)CC1	-0.3	-25	-10	17	5.7	3	/	0.72	i	0
Cc1nnc2c3ccccc3c(-c3ccc(O)cc3)nn12	2.0	/	/	/	0.9	-6	/	0.74	/	10
O=C(C1CCCN(S(=O)(=O)Cc2ccccc2)C1)N1CCCCC1 (centres undefined)	1.1	/	/	/	2.4	0	/	0.74	/	1
CCC(C)NC(=O)C1CCN(S(=O)(=O)c2cccc3nonc23)CC1 (centres undefined)	0.2	3	1	-1.0	3.2	-2	-0.8	0.7	i	-8
Cc1ccc(S(=O)(=O)CCC(=O)Nc2cccc(Cl)c2)cc1	0.5	6	13	-1.5	1.6	-6	1.0	0.66	i	5
CC(=O)Nc1c(O)nc(SCc2ccccc2C#N)[nH]c1=O	0.9	1	-8	2.3	6.7	-4	-1.4	0.66	i	5
CC(=O)N1CCOc2ccc(S(=O)(=O)NCc3ccc(Cl)cc3)cc21	1.9	-2	-3	3.9	2.8	-5	1.0	0.64	i	3
Cc1cc(Cl)ccc1OCCCC(=O)N1CCCc2ccccc21	-0.1	-30*	-21*	-3.1*	5.4	-4	-29	0.66	i	24
CCC1(c2ccccc2)NC(=O)N(CC(=O)NC2(C#N)CCCCC2)C1=O (centres undefined)	0.7	-2	-8	-2.0	0.2	2	-0.5	0.67	i	-17
Cc1cc2cc(CNC(=O)c3ccc(S(=O)(=O)N(C)C)cc3)ccc2n1C	-0.1	5	8	15	4.4	-1	9.6	0.78	i	-6
Cc1ccsc1/C=N/NC(=O)C(=O)NCC(C)C	0.0	12	18	1.0	/	-1	-2.5	/	/	-14

Profiles from above. Order of values: Bfl-1 A1 inh | Ecoli rRNA inh | Ecoli rRNA inh OD600 | Ecoli rRNA inh RFP | UCH37 DUB inh | Beta apoptosis | MLL AF4-AF9 inh | Ecoli growth | FGF22 binding | T cruzi repl
O=C(NC1CCN(C(=S)Nc2ccc(Cl)cc2)CC1)c1ccco1 in the list: -0.8 | -1 | -21 | -0.8 | 0.5 | 7 | -2.5 | 0.62 | i | -16
CC(=O)Nc1c(O)nc(SCc2ccccc2C#N)[nH]c1=O in the list: 0.9 | 1 | -8 | 2.3 | 6.7 | -4 | -1.4 | 0.66 | i | 5

(further entries)
SMILES	Bfl-1 A1 inh	Ecoli rRNA inh	Ecoli rRNA inh OD600	Ecoli rRNA inh RFP	UCH37 DUB inh	Beta apoptosis	MLL AF4-AF9 inh	Ecoli growth	FGF22 binding	T cruzi repl
Cc1cc(C(=O)N2CCN(C/C=C/c3ccccc3)CC2)no1	-0.2	/	/	/	0.5	-6	/	0.69	/	-8
COC(=O)c1cccc(NC(=O)Cc2nc(-c3ccccc3)sc2-c2ccc(C)cc2)c1	-0.4	/	/	/	4.5	1	/	0.74	/	23
COC(=O)c1cnn(-c2ccccc2)c1/C=N/NC(=S)Nc1ccccc1	0.2	-16	-6	-7.6	/	1	3.0	/	i	19
COc1cc(OC)cc(C(=O)N[C@H](C(=O)OCC(=O)Nc2ccc(C(C)C)cc2)C(C)C)c1	-0.5	1	-1	0.0	4.2	2	0.6	0.7	i	5
Cc1ccc(S(=O)(=O)CC(=O)Nc2nnc(C(C)(C)C)s2)cc1	0.6	2	-4	4.5	1.4	-1	-0.3	0.69	i	-8
CCn1c(COc2ccccc2)nnc1SCC(=O)Nc1cc(C)ccc1OC	0.2	/	/	/	1.5	0	/	0.73	/	5
CN1C[C@H](C(=O)NC2(C)OC3(O)[C@@H]4CCCN4C(=O)[C@H](Cc4ccccc4)N3C2=O)CC2c3cccc4[nH]cc(c34)C[C@H]21 (some centres undefined)	-0.6	/	/	/	-1.2	/	13	/	i	14
CC(C)Nc1nc(Cl)nc(NN(C)c2nc(N(C)C)nc(N(C)C)n2)n1	-0.4	33	-4	4.5	1.8	-5	-3.5	0.69	i	3
O=C(NCc1n[nH]c(=S)n1-c1ccccc1)c1ccc(S(=O)(=O)N2CCOCC2)cc1	0.8	/	/	/	-0.3	-6	/	0.65	/	-1
Cn1c2ccccc2c2ncn(CCN3CCOCC3)c(=O)c21	0.1	/	/	/	-12	-6	/	0.7	/	-11
O=C(c1ccc(Oc2ccccc2)cc1)c1nc2c(n1O)CCCC2	1.5	/	/	/	9.4	-2	-0.8	0.68	i	-11
CC(=O)Nc1nonc1-c1nc2ccccc2n1CCC(C)C	-0.2	/	/	/	-1.9	3	/	0.8	/	-2
O=C(Cn1cnc2ccccc2c1=O)OCCCCN1C(=O)c2ccccc2C1=O	-0.4	/	/	/	0.2	9	/	0.68	/	6
CC1CC(=O)N(CC(=O)Nc2ccccc2F)c2ccccc2S1(=O)=O (centres undefined)	0.2	2	10	0.1	3.7	-2	-4.6	0.7	i	-30
CCOc1ncccc1C(=O)OCC(=O)NCc1ccccc1	0.4	2	-1	-2.5	0.8	-5	-3.6	0.68	i	/
C=C(C)CNC(=O)C1CCC(=O)N(CCCc2ccccc2)C1 (centres undefined)	0.2	16	3	3.2	/	-4	-1.2	/	i	-11
CC(C)CCNC(=O)CCc1nnc2ccc(N3CCC(C)CC3)nn12	0.8	-16	-10	-2.9	1.7	-10	-0.9	0.67	i	19
CCOc1ccccc1NC(=O)CCn1c(=O)oc2ccccc21	0.1	/	/	/	2.4	0	/	0.68	/	-6
O=C(CCCn1c(=O)[nH]c2ccsc2c1=O)N1CCN(c2ccccn2)CC1	1.8	/	/	/	3.9	1	/	0.72	/	3
CCOC(=O)N1CCN(C(=O)c2cnn3c(C(F)F)cc(-c4ccc(C)cc4)nc23)CC1	-0.3	/	/	/	-25	0	/	0.79	/	25
COc1cc(C(=O)Nc2ccc(C)cc2)c2ccccc2n1	0.0	8	7	-0.1	1.7	18	-7.0	0.68	i	7
